# Source: PubChem
# ALOX15 inhib: qHTS Assay for Inhibitors of 15-hLO (15-human lipoxygenase) | Polyunsaturated fatty acid lipoxygenase ALOX15 (Homo sapiens), P16050 | purified 15hLO-1, xylenol orange hydroperoxide absorbance | Potency, µM (series often up to 57.1 µM), inactives show at the highest dose activity change, negative = inhibition, hits mostly inhibitors | actives 1.4% (n = 74,000) | AID 887, 2007; note: potency is the fitted concentration of half-maximal effect; % is set by controls: 0 for no effect and ±100 for the full control effect; nearly all actives have a fitted effect of over 55% in size
# Target sequence (P16050 whole entry, looked up): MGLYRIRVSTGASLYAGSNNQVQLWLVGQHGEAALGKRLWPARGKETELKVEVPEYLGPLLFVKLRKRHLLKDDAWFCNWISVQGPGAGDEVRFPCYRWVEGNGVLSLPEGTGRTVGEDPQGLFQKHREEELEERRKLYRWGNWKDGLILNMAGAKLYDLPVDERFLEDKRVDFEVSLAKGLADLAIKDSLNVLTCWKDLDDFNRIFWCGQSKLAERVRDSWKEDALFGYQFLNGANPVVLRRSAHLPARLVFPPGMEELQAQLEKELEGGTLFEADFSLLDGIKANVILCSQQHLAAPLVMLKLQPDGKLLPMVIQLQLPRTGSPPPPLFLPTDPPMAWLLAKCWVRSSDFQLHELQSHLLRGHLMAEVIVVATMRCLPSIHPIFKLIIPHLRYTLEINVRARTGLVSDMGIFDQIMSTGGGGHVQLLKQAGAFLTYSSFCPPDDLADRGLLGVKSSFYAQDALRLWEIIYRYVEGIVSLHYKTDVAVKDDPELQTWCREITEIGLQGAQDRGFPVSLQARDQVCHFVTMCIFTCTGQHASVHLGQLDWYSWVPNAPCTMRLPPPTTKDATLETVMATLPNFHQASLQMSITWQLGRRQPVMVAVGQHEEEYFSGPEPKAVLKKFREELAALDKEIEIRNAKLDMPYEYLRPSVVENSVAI
#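 Hydroperoxide formed from arachidonic acid (50 uM) by purified human 15hLO-1 (40 nM) oxidizes ferrous iron, and the ferric-xylenol orange complex is read at 573 versus 405 nm. Compounds were preincubated 15 min; reaction ran 6 min at room temperature.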
# Pol III holo inh: qHTS Assay for Inhibitors of DNA Polymerase III Holoenzyme System. reconstituted DNA polymerase III holoenzyme replication, biochemical. Potency, µM (highest dose often 57.1 µM), inactives show at the top dose activity change, negative = inhibition. actives 0.25% (n = 71,000); note: potency is the fitted concentration of half-maximal effect; % is set by controls: 0 for no effect and ±100 for the full control effect
#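 Reconstituted *E. coli* holoenzyme (0.35 nM Pol III, 1 nM beta, 154 nM SSB, 2 nM primase) was preincubated with compound for 15 min at RT. Synthesis on 1.4 nM ssM13Gori ran 35 min, then was stopped with PicoGreen/EDTA and read as dsDNA fluorescence.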
# HBB splice mod: qHTS Assay for Modulators of Hemoglobin Beta Chain Splicing; HBB splicing reporter cell assay, activation; EGFP reporter with mutant IVS2-654 intron; response scale: normalised to 500 nM splice-correcting PNA; AID 925, 2007; Potency, µM (doses to about 46.1 µM), without a hit: top-dose activation, actives largely listed as activators; actives 0.06% (n = 65,000); note: potency is the fitted concentration of half-maximal effect; 0% is about no effect
#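 Compounds were applied for 2 days to HeLa EGFP-654 cells, 500/well in Optimem with 2% FCS. The reporter's EGFP is disrupted by mis-splicing of beta-globin intron IVS2-654. Readout: summed well GFP fluorescence from 488 nm laser scanning; reference was 500 nM antisense […] 654 PNA.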
# BRCT inh green: qHTS Assay for Inhibitors of BRCT-Phosphoprotein Interaction (Green Fluorophore); Breast cancer type 1 susceptibility protein (Homo sapiens), P38398; BRCA1 BRCT-phosphopeptide binding, green fluorescence polarization; Potency, µM (series often up to 76.9 µM), inactives show top-dose activity change, negative = inhibition, usual class: inhibitors; actives 0.05% (n = 75,000);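 note: potency is the fitted concentration of half-maximal effect; plate controls were peptide without protein for full effect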
#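 Compounds were incubated for 12 min at room temperature with a complex of 100 nM fluorescein-tagged pBACH1 decapeptide and 250 nM His-tagged BRCT protein. Buffer was phosphate pH 7.3 with EDTA, DTT and Tween 20. Disruption of binding lowers the polarization signal.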
# BRCT inh red: qHTS Assay for Inhibitors of BRCT-Phosphoprotein Interaction (Red Fluorophore); Breast cancer type 1 susceptibility protein (Homo sapiens), P38398; BRCT-phosphopeptide binding, red fluorescence polarization; Potency, µM (titrated, usually from 76.9 µM), for the others: top-dose activity change, negative = inhibition, most hits filed as inhibitors; actives 0.03% (n = 75,000); note: % is set by controls: 0 for no effect and ±100 for the full control effect
#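 Fluorescence polarization: 100 nM His-tagged BRCA1 BRCT with 100 nM TAMRA-labelled phospho-BACH1 decapeptide, phosphate buffer pH 7.3 with 150 mM NaCl, DTT, 0.01% Tween 20; 12 min RT. Binding inhibition seen as FP decrease.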
# Hsp90 Hop PPI: qHTS Assay for Disrupters of an Hsp90 Co-Chaperone Interaction; actives 0.44% (n = 71,000); AlphaScreen TPR2A-His6 binding biotin-Hsp90 C-terminal peptide; Hsp90 C-terminal peptide / TPR2A (Hop) interaction, human; AID 595, 2007; Potency, µM (titrated, usually from 57 µM), without a hit: top-dose activity change, negative = inhibition; active = well fitted curve in either direction with a large enough effect; inconclusive = small, poorly fitted or top-dose-only effect, or another doubt; note: potency is the fitted concentration of half-maximal effect; % is set by controls: 0 for no effect and ±100 for the full control effect; many of its hits are not listed in these tables
# USP2a inhib: qHTS Assay for Inhibitors of Ubiquitin-specific Protease USP2a; AID 927, 2007; USP2a enzymatic assay, qHTS inhibition; Potency, µM (doses to about 38.3 µM), for the others: top-dose activity change, negative = inhibition, hits mostly inhibitors; actives 0.1% (n = 60,000);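 note: potency is the fitted concentration of half-maximal effect; nearly all actives have a fitted effect of over 60% in size; plate controls were DMSO for no effect and NEM full inhibition control for full effect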
#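 USP2 core (20nM final) preincubated 30 min RT with compound, then Ub-PLA2 20nM and NBD C6-HPC 20uM final added; buffer 20mM Tris-HCl pH 8.0, 2mM CaCl2. Fluorescence Ex 460/Em 535 read at 0 and 2.5 h; normalized to NEM.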
# CRE Fsk mod: Cell signaling CRE-BLA (Fsk stim) | CHO CRE-bla reporter (cAMP response element driving beta-lactamase), forskolin EC10, beta-lactamase ratio | Potency, µM (top dose mostly 38.2 µM), inactives show top-dose activity change, negative = inhibition, most hits filed as activators | actives 2.5% (n = 71,000) | AID 662, 2007; active = well fitted activation curve with a large enough effect in the signal ratio, with a control signal flat, not every such curve was filed as active; inconclusive = small, poorly fitted or top-dose-only effect, or effect the other way, or a change in a side signal; the % refers to the signal ratio; note: potency is the fitted concentration of half-maximal effect; % of control where 0% means no effect
#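 Titrated compounds plus EC10 NKH 477 on CHO CRE-bla cells, 3 h, 37 °C. CCF4, 2 h RT. Ratio 460/530 nm → AC50.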
# UbGFP stabilizer: Ubiquitin-GFP Assay; AID 526, 2006; 67,000 tested, under 10 active; Potency, µM (titrated, usually from 45.9 µM), without a hit: at the top dose activation (GFP accumulation), hits mostly activators; Ubiquitin-GFP reporter cells, proteasome inhibition, GFP fluorescence; response scale: untreated = 0%, 10 µM MG-132 = 100%; active = well fitted activation curve with a large enough effect, not every such curve was filed as active; inconclusive = small, poorly fitted or top-dose-only effect, or another doubt; inactive = no such curve, though single readings can be large or run the other way; note: potency is the fitted concentration of half-maximal effect
#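 U2OS cells expressing ubiquitin(G76V)-GFP, seeded overnight in 0.5% FBS medium, then treated 4 hr at 37 C across 46 uM to 2.9 nM. GFP-positive cells counted by laser cytometry (488 ex/515 em); %activity scaled between basal and 10 uM MG-132.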
# Epigenetic mod: qHTS Assay for Epigenetic Modulators. mouse C127i GFP locus derepression, cytometry, 30 h. Potency, µM (series often up to 46.1 µM), for inactives: at the top dose GFP derepression (activation). actives 0.09% (n = 68,000). AID 597, 2007; note: % of control where 0% means no effect
#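 Read-out is the number of GFP-positive cells, scored as fluorescent objects 20 to 120 um wide, reflecting derepression of a silenced CMV-GFP reporter in murine C127i cells after 30 h compound exposure at 37 C.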
# * = called active by the depositor; ? = inconclusive; / = not tested or not shown; [ ] = remark or other dose. Unless noted, calls come from the whole dose curve; as a rule, active = well fitted curve in the direction sought with a large enough effect; inconclusive = small, poorly fitted or top-dose-only effect, or another doubt; inactive = no such curve, though single readings can be large; an effect the other way counts as inactive or inconclusive. An excerpt; count on the stated rates, not on these rows.
SMILES,ALOX15 inhib,Pol III holo inh,HBB splice mod,BRCT inh green,BRCT inh red,Hsp90 Hop PPI,USP2a inhib,CRE Fsk mod,UbGFP stabilizer,Epigenetic mod
CC1CCCCC1NC(=O)CC1Oc2ccccc2NC1=O (stereo unspecified),3%,-8%,-0.2%,-0.7%,-0.1%,-3%[2.3 µM],/,-6%,9%,/
CCc1cccc(C)c1NC(=O)c1cccc(N(C)C)c1,?,/,/,-1.8%,-0.6%,/,/,/,/,/
Cc1nc2c(C(=O)NCc3ccc(F)cc3)c[nH]n2c(=O)c1Cl,-3%,-5%,4.8%,-0.7%,-0.7%,-1%,8%,-11%,0%,0%
c1ccc(Cc2nn3c(-c4ccncc4)nnc3s2)cc1,-22%,-7%,-1.7%,2.9%,-0.5%,-1%,-1%,5%,5%,0%
O=C(NCc1cccc(F)c1)c1noc2c1CCCC2,-2%,5%,-0.2%,-2.4%,-0.3%,5%,/,3%,9%,0%
CCN(CC)CCn1c(-c2ccccc2)nc2c(NCCO)nc(C)nc21,0%,-3%,0.0%,-2.0%,0.4%,-6%,/,26%,-5%,/
c1ccc(-c2nn3c(C4COc5ccccc5O4)nnc3s2)cc1 (stereo unspecified),?,-2%,-1.4%,1.0%,0.4%,-3%,35%[activator],11%,4%,-2%
CCNC(=O)CC1C(=O)N(c2ccc(OC)cc2)C(=O)N1Cc1ccc(OC)cc1 (stereo unspecified),11%,-6%,3.8%,-1.6%,-1.8%,-3%,3%,-18%,21%,2%
Oc1ccc(Cc2cc(Cl)cc(Cl)c2O)cc1Cl,-24%[11.4 µM],2%[11.4 µM],1.2%[9.22 µM],-1.2%[15.4 µM],1.4%[15.4 µM],-5%[11 µM],/,4%[7.6 µM],-5%[9.17 µM],5%[9.22 µM]
CCn1c(SCC(=O)Nc2cccc(C)c2)nc2c(c1=O)SC(C)C2 (stereo unspecified),-6%,-6%,-0.7%,0.4%,-0.8%,-1%,/,?,1%,/
O=C(Nc1nc2c(s1)CCc1ccccc1-2)c1ccco1,-19%,-4%,-1.2%,1.7%,-1.1%,-2%,13%,?,-4%,3%
CC1C(=O)C(C)C(c2cccs2)NC1c1cccs1 (stereo unspecified),1%,-2%,-0.6%,-0.1%,-1.5%,10%,1%,-1%,-1%,0%
COc1ccccc1CNc1cc(-c2cccc(C#N)c2)ncn1,-4%,4%,-0.2%,1.5%,-1.1%,8%,2%,?,6%,-3%[9.22 µM]
CCOC(=O)C1=C(c2ccccc2)Nc2nc(C)nn2C1c1cccc(OC)c1OC (stereo unspecified),7%,3%,0.9%[0.369 µM],-2.6%,2.0%,-7%,13%,-4%,-4%,4%
O=C(NCc1ccc(F)cc1)c1noc2c1CCCCC2,2%,-8%,0.1%,-2.0%,0.6%,4%,-5%,-2%,10%,2%
CCCc1nc(NC(C)=O)c(C#N)c(-c2ccco2)c1CC,-7%,-2%,-0.6%,-1.1%,-1.7%,-3%,9%,?,-6%,0%
CCOC(=O)C1=C(O)C(=O)N(Cc2ccccc2)C1,?,-7%,/,2.5%,-0.3%,-12%,/,-9%,-3%,-1%
CCOC(=O)CSc1nc2c(sc(=S)n2CCc2ccccc2)c(=O)n1Cc1ccco1,?,-2%,1.1%[0.369 µM],-0.8%,-0.8%,-7%,17%,?,/,0%
CCCCCCOC(=O)Sc1nc2ccccc2o1,-24%,-2%,0.6%,-8.6%,-1.8%,0%,-7%,-14%,-7%,-2%
CC(C)CC1C(C#N)=C(N)SC(N)=C1C#N,?,-12%[11.4 µM],-2.1%[0.0738 µM],-2.0%,-0.9%,-10%[11 µM],0%[7.66 µM],?,12%[9.17 µM],0%
CCCc1nc2ccccc2c(=O)n1/N=C/c1c(C)[nH]n(-c2ccc(C)cc2)c1=O,-23%,-4%,-1.2%,0.0%,-0.3%,-1%,1%,-2%,-3%,3%
CCC(Oc1ccc2c(c1)C(=O)CC(C)(C)O2)C(=O)NCCN1CCCCCC1 (stereo unspecified),15%,12%,2.6%[0.369 µM],-3.6%,0.4%,-13%,3%,12%,-7%,0%
COc1cc(C)ccc1NC(=O)c1ccc(S(=O)(=O)N2CCOCC2)cc1,-9%,-5%,-1.7%,-0.9%,0.6%,0%,16%,15%,-8%,0%
COc1cc(NC(=O)c2ccc(Br)o2)ccc1NC(=O)C(C)C,8%,-4%,0.5%,0.4%,1.9%,0%,0%,16%,5%,0%
COc1[nH]c(/N=C/c2ccccc2)c(C#N)c1C#N,12%,13%,-0.7%[57.5 µM],25µM*,32µM*,-3%,25%,-5%,-3%,-2%

# Following part:
SMILES,ALOX15 inhib,Pol III holo inh,HBB splice mod,BRCT inh green,BRCT inh red,Hsp90 Hop PPI,USP2a inhib,CRE Fsk mod,UbGFP stabilizer,Epigenetic mod
COc1cccc(/C(O)=C2/C(=O)C(=O)N(c3cc(C)on3)C2c2cccs2)c1 (stereo unspecified),43%[activator],0%,0.0%[57.5 µM],2.0%,0.7%,-1%,31%[activator],?,1%,2%
COC(=O)[C@H]1[C@@H]2C[C@H]3c4[nH]c5ccccc5c4CCN3C[C@@H]2CC[C@@H]1O,?,-4%,/,-0.3%,-0.2%,1%,/,1%,3%,0%
CS(=O)(=O)Nc1cccc(-c2nc(NCCN3CCOCC3)c3ccccc3n2)c1,-1%,13%,0.0%,-1.5%,-1.4%,2%,15%,?,-5%,11%[9.22 µM]
O=C(NCc1ccco1)c1c[nH]c2ccc(S(=O)(=O)N3CCOCC3)cc2c1=O,-1%,0%,-0.8%,0.6%,-1.2%,1%,8%,-13%,-6%,3%
COc1ccccc1N1CCN(C(=O)c2cc(-c3ccc(Cl)cc3)on2)CC1,-12%,5%,3.1%,-1.8%,0.5%,1%,-4%,?,15%,0%
COc1cc(-c2nnc3sc(-c4ccncc4)nn23)cc(OC)c1OC,-5%,-13%,-1.3%[1.84 µM],-2.4%,-2.6%,-7%,9%,2µM*,16%,-2%
COc1cc(-c2cc(=O)c3ccccc3o2)ccc1O,10%[25.6 µM],8%,/,-1.3%,1.5%,-7%,/,2µM*,-1%,0%[9.22 µM]
C=CCn1c(SCC(=O)Nc2ccc3c(c2)OCO3)nnc1-c1ccccc1OC,4%,4%,2.1%,0.3%,-0.2%,-4%,14%,-26%,2%,-3%
COC(=O)c1cc2occc2n1CC(=O)Nc1cc(OC)cc(OC)c1,-9%,-4%,0.0%,-0.1%,-1.3%,-4%,4%,6%,10%,0%
CCS(=O)(=O)Nc1c(C(=O)O)[nH]c2ccccc12,-1%,-6%,2.4%,-1.9%,-0.2%,-9%,11%,-11%,2%,-3%
CC1(C)SC2C(NC(=O)C(N)c3ccccc3)C(=O)N2C1C(=O)O (stereo unspecified),-5%,/,/,-2.9%[3.08 µM],-2.6%,/,4%,/,/,/
Cc1ccc(NC(=O)C2CCCN(c3ncccn3)C2)cc1F (stereo unspecified),7%,-4%,2.8%[57.5 µM],-1.5%,-0.2%,2%,/,-2%,-2%,-1%
COc1ccccc1-n1c(SCC(=O)Nc2ccc(F)cc2)nc2c(c1=O)SCC2,4%,-6%,-0.6%,-0.8%,-0.2%,3%,/,-2%,-3%,/

# Among those listed so far, these have fluorine.
SMILES,ALOX15 inhib,Pol III holo inh,HBB splice mod,BRCT inh green,BRCT inh red,Hsp90 Hop PPI,USP2a inhib,CRE Fsk mod,UbGFP stabilizer,Epigenetic mod
Cc1nc2c(C(=O)NCc3ccc(F)cc3)c[nH]n2c(=O)c1Cl,-3%,-5%,4.8%,-0.7%,-0.7%,-1%,8%,-11%,0%,0%
O=C(NCc1cccc(F)c1)c1noc2c1CCCC2,-2%,5%,-0.2%,-2.4%,-0.3%,5%,/,3%,9%,0%
O=C(NCc1ccc(F)cc1)c1noc2c1CCCCC2,2%,-8%,0.1%,-2.0%,0.6%,4%,-5%,-2%,10%,2%
Cc1ccc(NC(=O)C2CCCN(c3ncccn3)C2)cc1F (stereo unspecified),7%,-4%,2.8%[57.5 µM],-1.5%,-0.2%,2%,/,-2%,-2%,-1%
COc1ccccc1-n1c(SCC(=O)Nc2ccc(F)cc2)nc2c(c1=O)SCC2,4%,-6%,-0.6%,-0.8%,-0.2%,3%,/,-2%,-3%,/
